Assay outcomes: PubChem, National Center for Advancing Translational Sciences (NCATS)
2A firefly – lowers the firefly signal of an FMDV 2A StopGo reporter. HEK cells with a luciferase reporter of 2A StopGo recoding. Potency, µM (series often up to 57.5 µM), for the others: at the highest dose signal change, negative = less light. 0.23% of 120,000 active; active = well fitted falling curve with a large enough effect; inconclusive = small, poorly fitted or top-dose-only effect; inactive = no such curve, though single readings can be large or run the other way; note: nearly all actives have a fitted effect of over 60% in size; overnight with compound
2A Renilla – lowers the Renilla signal of an FMDV 2A StopGo reporter | AID 1745857 | Potency, µM (series often up to 57.5 µM), inactives show at the highest dose signal change, negative = less light | HEK cells with a luciferase reporter of 2A StopGo recoding | 0.32% of 120,000 active; active means well fitted falling curve with a large enough effect; inconclusive means small, poorly fitted or top-dose-only effect; inactive means no such curve, though single readings can be large or run the other way; note: nearly all actives have a fitted effect of over 55% in size; overnight with compound
Active calls of the source: *; ? = inconclusive; [ ] = remark or other dose. % is set by controls: 0 for no effect and ±100 for the full control effect; potency is the fitted concentration of half-maximal effect.

Compound	2A firefly	2A Renilla
CCn1c(Cn2nnc(-c3ccc(C)cc3)n2)nc2cc(S(=O)(=O)N3CCCCC3)ccc21	-3.8%	3.9%
O=c1c2cnn(-c3ccc(F)cc3)c2ncn1Cc1ccc(F)cc1	-9.6%	-6.5%
CCCCSCCCNC(=O)C1CCC(CNS(=O)(=O)c2c(C)cc(C)cc2C)CC1 (stereo not given)	58.9%[activator]	3.9%
Cc1noc(C)c1CCC(=O)Nc1nc(-c2ccc3c(c2)CCO3)cs1	?	?
CCCC(=O)Nc1ccc(C(=O)Nc2ccc3c(c2)nc(CCn2ccnc2C)n3C)cc1	9.5%	-9.5%
CCOC(=O)c1ccc(NC(=O)c2c(NCc3cccs3)sc3c2CCCC3)cc1	0.0%	-4.3%
Cc1ccc(C(=O)Nc2ccccc2-c2nc(Cc3ccccc3)no2)cn1	3.4%	-2.6%
Cc1ccc(C(=O)NCc2nc(C)cs2)c(C)c1	0.0%	19.5%
CSc1ccc(Cn2nnc(C(=O)Nc3ccc(C)cc3Cl)c2N)cc1	71.0%[activator]	8.4%
CCOc1ccc(S(=O)(=O)NCCc2sc(-c3ccc(C)cc3)nc2C)cc1	0.2%	-2.7%
Cc1ccc(Cl)cc1N1CCN(C(=O)c2noc3c2CCCC3)CC1	-29.0%	-11.4%
CN(Cc1ccc(Br)cc1)C(=O)CN1CCCC1c1ccc2c(c1)OCCO2 (stereo not given)	-7.3%	2.0%
COc1cccc(NC(=O)Cn2c(=O)n(-c3ccc(Cl)cc3)c(=O)c3sc4ccccc4c32)c1	25.7%	-10.1%
c1ccc(-c2c3c(nc4ccccc24)CCSC3)cc1	-11.6%	-2.7%
Cc1cc(C(=O)OCC(=O)Nc2cccc(C)c2C)c2ccccc2n1	18.0%	8.3%
Cc1cc(C)n(-c2ccc(C(=O)OCC(=O)NC3CCS(=O)(=O)C3)cc2)n1 (stereo not given)	-4.3%	-16.7%
N#Cc1ccccc1N=Cc1ccc(Cl)cc1Cl	18.8%	6.3%
CC(C)CCSc1nc2c(c(=O)[nH]c(=O)n2C)n1CC(O)COc1ccc(Cl)cc1 (stereo not given)	8.1%	3.2%
CCCCCCCCSCC(=O)O	4.2%	-5.7%
Cc1ccc(OCCSc2nc3ccccc3n2CCC(=O)O)cc1	73.1%[activator]	15.9%

Sorted by heavy-atom count (ascending): 7 of the compounds above.
Compound	2A firefly	2A Renilla
O=c1c2cnn(-c3ccc(F)cc3)c2ncn1Cc1ccc(F)cc1	-9.6%	-6.5%
CSc1ccc(Cn2nnc(C(=O)Nc3ccc(C)cc3Cl)c2N)cc1	71.0%[activator]	8.4%
Cc1cc(C)n(-c2ccc(C(=O)OCC(=O)NC3CCS(=O)(=O)C3)cc2)n1 (stereo not given)	-4.3%	-16.7%
CN(Cc1ccc(Br)cc1)C(=O)CN1CCCC1c1ccc2c(c1)OCCO2 (stereo not given)	-7.3%	2.0%
CC(C)CCSc1nc2c(c(=O)[nH]c(=O)n2C)n1CC(O)COc1ccc(Cl)cc1 (stereo not given)	8.1%	3.2%
CCCCSCCCNC(=O)C1CCC(CNS(=O)(=O)c2c(C)cc(C)cc2C)CC1 (stereo not given)	58.9%[activator]	3.9%
CCCC(=O)Nc1ccc(C(=O)Nc2ccc3c(c2)nc(CCn2ccnc2C)n3C)cc1	9.5%	-9.5%

The list goes on:
Compound	2A firefly	2A Renilla
C=Cc1ccc(Cn2c(C(=O)O)c(CNCc3ccccc3)c3ccc(OC)cc32)cc1	4.6%	0.5%
CCOc1ccc(NC(=O)CSC2=Nc3ccccc3C3=NC(CCC(=O)NCc4ccccc4)C(=O)N23)cc1 (stereo not given)	-9.9%	13.6%
CCn1c(SCC(=O)N(C)Cc2ccc(-c3ccc(Cl)cc3)o2)nnc1C1CC1	-12.1%	-21.6%
Cc1ccc(C)c(NC(=O)CN2C(=O)C(C)(C)c3ccccc32)c1	-23.5%	0.3%
CNc1oc(-c2ccccc2)nc1S(=O)(=O)c1ccccc1	12.5%	96.1%[activator]
Cc1ccc(C(=O)Nc2cc3c(cc2C)n(C)c(=O)c(=O)n3C)cc1	11.5%	11.4%
O=C(NCc1ccccc1Cl)C1CCC(CNS(=O)(=O)c2ccc(Cl)cc2)CC1 (stereo not given)	0.0%	0.0%
COc1ccc(-c2nc3ccc(NS(=O)(=O)c4ccc(Cl)cc4)cc3o2)cc1	22.8%	118.0%[activator]
CCOc1ccc(C(C(=O)NC2CCCCC2)N(C(=O)c2cnccn2)c2cccs2)cc1 (stereo not given)	-2.7%	22.9%
Cc1ccc(-n2ncc3c(NCC4CCCO4)ncnc32)c(C)c1 (stereo not given)	64.4%[activator]	-12.3%
Cc1ccc(C2N3CC4(C(C)C)CN2CC(C(C)C)(C3)C4=O)cc1 (stereo not given)	2.4%	-0.3%
COC(=O)c1ccccc1OCC(=O)NCC(F)(F)F	3.2%	-1.3%
CCOc1nnc(CN2CCN(c3cccc(F)c3C#N)CC2)s1	34.2%[activator]	7.2%
Fc1ccc(N2CCN(c3ncnc4onc(-c5ccc(Cl)cc5)c34)CC2)cc1	3.5%	5.3%
O=C(CCN1C(=O)NC2(CCCC2)C1=O)Nc1cnc2ccccc2c1	52.4%[activator]	-10.0%
Cc1cc(=Nc2ccccc2)n2ccsc2n1	1.4%	1.1%
O=C(O)c1cccc(NCc2ccc(Cl)cc2Cl)c1	-25.5%	14.4%
Cc1cc(C)c(Cn2c(CCNC(=O)c3ccco3)nc3ccccc32)c(C)c1	-20.5%	-13.4%
CS(=O)(=O)Nc1ccccc1NC(=O)CCCc1ccccc1	34.3%[activator]	9.8%
COCCCn1c(=O)c2sccc2n2c(CCCC(=O)Nc3ccc(F)c(F)c3)nnc12	-19.2%	-17.6%
O=C(Nc1ccccc1SC1CCCC1)c1ccco1	40.0%	25.0%
Cc1ccc(C)c(S(=O)(=O)N2CCN(C(=O)CCc3ncc(-c4ccc(F)cc4)o3)CC2)c1	-2.1%	-4.5%
COc1ccc(NC(c2ccc(F)cc2)c2nnc(-c3ccccc3Cl)o2)cc1Cl (stereo not given)	-11.9%	27.7%
COc1cc(C2c3c(oc4ccccc4c3=O)C(=O)N2c2ccccn2)cc(OC)c1OC (stereo not given)	19.6%	-10.0%
C/C(=N/NC(=O)C1CC1(c1ccc(C)cc1)c1ccc(C)cc1)c1cccc2ccccc12 (stereo not given)	9.9%	0.6%
CCc1c(C(=O)N(C)Cc2nc3ccsc3c(=O)[nH]2)cnn1-c1cccc(Cl)c1	-15.8%	-21.4%
Cn1c(=O)c2sccc2n2c(CCCC(=O)Nc3ccc(F)cc3F)nnc12	-13.9%	-1.6%
Brc1ccccc1-c1nnc(CN2CCCCC2)o1	137.4%[activator]	3.9%
CCOc1ccc2c(c1)cc(C(=O)NC1CCCC1)n2C	24.4%	10.3%
COc1ccc2c(C)c(CC(=O)NC3CCS(=O)(=O)C3)c(=O)oc2c1 (stereo not given)	15.8%	3.9%
Cc1ccc2c(c1)c(=O)c(C(=O)c1ccc3c(c1)OCO3)cn2Cc1ccc(Cl)cc1	-12.0%	13.5%
CCc1cccc(C)c1NC(=O)CN1C(=O)C2(SCC(=O)N2c2cccc(F)c2)c2ccccc21 (stereo not given)	-8.3%	-12.3%
O=C(Cc1n[nH]c(=O)c2ccccc12)NCC1(N2CCOCC2)CCCCC1	7.9%	4.3%
Cc1cc(-n2c(/C=C/c3ccc(Br)s3)nc3ccccc3c2=O)ccc1Br	-27.1%	12.8%
CCOc1ccccc1NC(=O)Nc1cc(C)c2nc(NC(=O)c3ccccc3)sc2c1	42.0%[activator]	8.5%
Cc1cccc(-n2cnc3cc(C(=O)NC4CCCCCC4)ccc32)c1	24.9%	128.3%[activator]
COc1cc(/C=C2\NC(=O)NC2=O)cc(I)c1OCc1ccc(F)cc1	-1.2%	-1.7%
Cc1ccc(C)c(NC(=O)CCOc2ccccc2)c1	31.4%[activator]	13.1%
Cc1ccc(CSc2nc3cccnc3n2Cc2ccc(C(=O)NCc3cccs3)cc2)cc1	32.4%[activator]	10.6%
O=C(c1csc(Nc2ccc(Cl)c(Cl)c2)n1)N1CCc2ccccc2C1	51.5%[activator]	60.7%[activator]

The listing continues.
Value order – 2A firefly, 2A Renilla
- CCC(C)Cn1c(CCNC(=O)c2ccco2)nc2ccccc21 (stereo not given)
→ -2.0%, -5.2%
- Cc1ccc(NC(=O)c2cc(=O)c3ccc(C)cc3o2)c(C)c1
→ -10.9%, -19.3%
- Cc1ccc(N2CC(NC(=O)C3CCCCC3)CC2=O)cc1C (stereo not given)
→ -17.0%, 1.8%
- Cc1ccccc1Nc1nc(C(=O)N2CCCC2)cs1
→ 164.4%[activator], 62.0%[activator]
- Cc1ccc(C)c(NC(=O)CCn2cnc3c2c(=O)n(C)c(=O)n3C)c1
→ 0.2%, 9.0%
- CCn1cc(/C=C(\NC(=O)c2ccc(OC)cc2)C(=O)NCCCn2ccnc2)c2ccccc21
→ -20.3%, 21.1%
- CCn1nc(C(=O)Nc2ccc(C)cc2C)c2ccccc2c1=O
→ 5.9%, -1.5%
- CCCCn1c(=O)[nH]c(=O)c2c1nc(COC(=O)C=C(C)C)n2CC
→ -7.9%, -11.3%
- CCc1ccc(S(=O)(=O)N2CCN(Cc3nc4cc(C(=O)N5CCCCC5)ccc4o3)CC2)cc1
→ 6.2%, 10.6%
- CC(C(=O)Nc1ccccc1C(F)(F)F)n1nnc2sc3c(c2c1=O)CCCC3 (stereo not given)
→ -9.7%, -9.7%
- CCOc1ccc(C(N)=S)cc1
→ 15.0%, 12.8%
- Cc1ccc2c(CC(=O)Nc3ccc(S(=O)(=O)N4CCCC(C)C4)cc3)coc2c1 (stereo not given)
→ -9.1%, 82.3%[activator]
- Cc1ccnc(Nc2nc(C)c3ccccc3n2)n1
→ 73.6%[activator], 3.9%
- C(=C\c1ccccc1)/CNCC1CCNCC1
→ -2.3%, -9.6%
- O=C(NCCC1=CCCCC1)c1ccc2c(c1)N(Cc1ccccc1)C(=O)c1ccccc1S2(=O)=O
→ 0.0%, 13.4%
- COc1ccc(/C=C2\OC(=O)c3ccccc32)cc1OC
→ 20.3%, 30.2%
- COc1ccccc1C(=O)Nc1ccc(S(=O)(=O)Nc2ncccn2)cc1
→ -3.4%, -7.1%
- CC(C)Oc1ccc(CNC(=O)c2ccc(NC(=O)N3CCSc4ncccc43)cc2)cc1
→ 45.8%[activator], -16.2%
- COc1ccc(NC(=O)N2CCN(Cc3nc(-c4ccc(C)cc4)oc3C)CC2)cc1OC
→ -3.3%, -11.1%
- CC1CN(c2ccc(Cl)cc2)c2nc3c(c(=O)n(CC(=O)O)c(=O)n3C)n2C1 (stereo not given)
→ -19.9%, -16.0%

Record cards, from the list above. Values in the order: 2A firefly	2A Renilla
CCCCn1c(=O)[nH]c(=O)c2c1nc(COC(=O)C=C(C)C)n2CC is listed as -7.9%	-11.3%
Cc1ccnc(Nc2nc(C)c3ccccc3n2)n1 is listed as 73.6%[activator]	3.9%

New compounds follow.
Value order – 2A firefly, 2A Renilla
- Cc1ccccc1C(=O)NCCc1sc2nc(-c3ccc(F)cc3)nn2c1C
→ 112.1%[activator], 2.7%
- COc1ccc(Nc2cc(C(=O)NCc3ccccc3OC)c3ccccc3n2)cc1
→ 0.4%, -8.3%
- COC(=O)c1[nH]c2ccccc2c1NC(=O)CCN1CCCCC1
→ -26.6%, -24.3%
- CC1=C(C(=O)Nc2cccc(C)c2C)C(c2cccs2)NC(=S)N1 (stereo not given)
→ 0.8%, -13.7%
- Oc1c(Cl)cc(Cl)cc1C=Nc1cccc(C(F)(F)F)c1
→ -2.3%, -1.8%
- CSc1ccc(CCNC(=O)CCn2c(=O)c3cccn3c3cccnc32)cc1
→ -18.8%, -18.7%
- CC1(C)Cc2c(sc3c2c(=O)n(CCCO)c(=O)n3CCc2ccccc2)CO1
→ 18.5%, 29.7%
- CCOc1ccc(NC(=O)CSc2oc(-c3ccco3)nc2S(=O)(=O)c2ccccc2)cc1
→ -10.2%, 21.2%
- O=C(NCC(c1ccc2c(c1)OCO2)N1CCOCC1)c1ccccc1 (stereo not given)
→ 6.0%, 68.1%[activator]
- CNc1nc(-c2[nH]c(C)c(C(=O)OC)c2C)cs1
→ 84.1%[activator], 50.5%[activator]
- Cc1ccc2c(c1)C(C)(c1ccccc1)CC(C)(C)N2C(=O)c1ccc(F)cc1 (stereo not given)
→ 1.0%, -4.1%
- CSc1ccc(CNc2ncc(-c3ccccc3)n2C)cc1
→ -2.8%, -3.4%
- COc1ccc(C(=O)c2c(N)c(-c3nc4ccccc4[nH]3)c3ccccn23)cc1
→ 2.7%, -11.0%
- COc1ccccc1Oc1c(C)oc2cc(OC(=O)c3ccc4c(c3)OCO4)ccc2c1=O
→ 2.4%, 9.8%
- CCC(CC)NC(=O)COC(=O)c1ccc2ccccc2n1
→ 20.7%, 3.4%
- CCOc1ccccc1NC(=O)c1nn(-c2ccc(OC)cc2)ccc1=O
→ 58.0%[activator], 0.0%
- COc1ccc(CCNC(=O)CSc2ccc(-c3cccs3)nn2)cc1
→ 12.7%, -2.5%
- C=CCNC(=O)NC(C)(C)C(=O)O
→ 16.3%, 6.0%
- CCCCN(C)CCCNC(=O)Cn1ncc2c3ccccc3n(Cc3cccc(Cl)c3)c2c1=O
→ -8.1%, -17.6%
- CCOC(=O)c1cc(S(=O)(=O)Nc2cc(F)ccc2C)[nH]n1
→ -9.4%, 134.6%[activator]
- COc1ccc(NC(=O)N(Cc2ccco2)C2CCN(C(C)=O)CC2)c(OC)c1
→ -16.5%, 9.1%
- C=CCNC(=O)NC(=O)CN1CCC(Cc2ccccc2)CC1
→ 5.7%, -3.3%
- COc1ccc(-c2cn3nc(N4CCCC(C(=O)NCCC(C)C)C4)sc3n2)cc1 (stereo not given)
→ -4.6%, ?
